# Compound activity as filed in PubChem BioAssay.
# Anthrax LT inh: inhibitors of anthrax lethal toxin internalization | Cells, anthrax lethal toxin internalization, FRET ratio (460/530) | Potency, µM (top dose mostly 40 µM), without a hit: at the top dose activity change, negative = inhibition, actives largely listed as inhibitors | 0.67% of 70,000 active | AID 912; active = well fitted falling ratio curve with the 530 nm signal flat; inconclusive = other ratio curves, or a change in one channel alone; inactive = flat curves in the ratio and both channels; the % refers to the ratio; also: % is scaled to controls: 0 for no effect and ±100 for the full control effect; nearly all actives have a fitted effect of over 50% in size; tested in ME-180 cells; beta-lactamase reporter
# SmPrx2 inh: inhibitors of Schistosoma mansoni peroxiredoxin 2. Potency, µM. AID 448. 0.07% of 65,000 active. S. mansoni Prx2 activity coupled to TGR/GSH (TGR is thioredoxin glutathione reductase), NADPH fluorescence loss, qHTS; some inactives read as strong as hits; active means full or partial inhibition curve with a strong effect at the top dose; inconclusive means weaker partial or single-point curve; inactive means no accepted curve; also: series up to 57 µM; many of its hits are not listed in these tables
#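 Prx2 inhibition was measured as reduced NADPH consumption when electrons flowed from NADPH through TGR and glutathione to Prx2 and H2O2. Plates were read kinetically over 8 min; enzyme reagents were held at 4 deg C during dispensing.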
# Numbers without * were called inactive; ? = inconclusive; . = no result given; [ ] = remark or other dose. Potency is read from the fitted curve at half-maximal effect. An excerpt; the hit share may differ from the screen's.
nr	SMILES	SmPrx2 inh	Anthrax LT inh
1	O=C(Nc1nc2ccc(Cl)cc2s1)c1ccc(Br)o1	.	-12.7%
2	O=C(O)c1cc(Cl)ccc1NC(=O)C1CCCO1 (stereo not given)	>57	11.9%
3	O=C(O)C1CC=C(Cl)CC1C(=O)NCc1ccccc1 (stereo not given)	>57	.
4	CCCn1c(C)nc2c(NCCN(C(C)C)C(C)C)nc(C)nc21	.	?
5	O=C(Nc1ccc(N2CCOCC2)cc1N1CCOCC1)c1ccco1	.	8.1%
6	COc1cc(C2Nc3ccc4ncccc4c3C3=C2C(=O)CCC3)cc(OC)c1O (stereo not given)	>57	13.3%
7	CC1(C)Cc2c(c(=S)nc(-c3ccccc3)n2CCN2CCOCC2)CO1	>57	-7.1%
8	CCCCCn1c(Sc2ncccn2)nc2c1c(=O)[nH]c(=O)n2C	>57	-6.3%
9	Cc1nc(SCC#N)c2c(C)c(C)sc2n1	>57	-7.4%
10	CC(Cc1ccccc1)C(=O)NCc1ccccn1 (stereo not given)	>57	5.8%
11	CC(=O)Cc1nsc(NC(=O)c2ccc(-c3ccccc3Cl)o2)n1	>57	-9.1%
12	COc1cccc(OC)c1C(=O)Nc1cccc(C(C)=O)c1	>57	-24.5%
13	COc1ccc(Oc2ncc3nc(-c4ccc(OC)cc4)c(=O)n(Cc4cccs4)c3n2)cc1	>57	?
14	CCOC(=O)N(c1ccccc1)P1(=S)OCC(C)O1 (stereo not given)	>57	4.2%
15	CC(C#N)Sc1nc2ccccc2c(=O)n1-c1ccccc1 (stereo not given)	>57	-6.6%
16	CC1CCCc2sc3nc(N4CCN(CCO)CC4)n4ncnc4c3c21 (stereo not given)	>57	-3.0%
17	CC(C)=C(NC(=O)c1ccccc1)C(=O)N1CCOCC1	>57	-8.4%
18	Cc1nnc(NC(=O)CCC(=O)N2CCN(CCc3ccccc3)CC2)s1	>57	?
19	CC(=O)Nc1ccc(N2S(=O)(=O)c3ccccc3S2(=O)=O)cc1	>57	-6.7%
20	COc1ccc(-n2c(Cc3cccn3C)nnc2SCC(=O)NCc2ccco2)cc1	>57	0.4%
21	O=C(Cc1c(F)cccc1Cl)Nc1ccncc1	>57	12.2%
22	Cc1ccc2c(c1)c1c3n2CCN(C(=O)CN2CCN(C)CC2)C3CCC1 (stereo not given)	>57	?
23	CC(C)(C)C1CCc2onc(C(=O)NC3CCCC3)c2C1 (stereo not given)	>57	-5.3%
24	O=C(CNC(=O)C1CCCCC1)NCCCO	>57	1.0%
25	COc1ccc(-c2nsc3c(N4CCN(S(=O)(=O)c5ccccc5)CC4)ncnc23)cc1	>57	-4.7%
26	COc1cc2nc(N3CC=[N+](C(=O)c4ccco4)CC3)nc(N)c2cc1OC	>57	-4.2%
27	CCOc1ccc(N2C(=O)CC(Sc3nc(C)cc(C)c3C#N)C2=O)cc1 (stereo not given)	>57	1.5%
28	CC(=O)[C@H]1CC[C@@H]2[C@H]3CC=C4C[C@@H](O)CC[C@]4(C)[C@H]3CC[C@]12C	>57	1.3%[3.58 µM]
29	O=C(NCCN1CCOCC1)c1cc2c(=O)n3ccccc3nc2n1Cc1ccccc1	>57	9.2%
30	O=C(CCN1C(=O)c2ccccc2C1=O)NCCN1CCOCC1	.	0.0%
31	CCC(C)[C@H](NC(=O)NCc1cccc(OC)c1)C(=O)OC (stereo not given in full)	>57	.
32	Cc1ccc(C(=O)CSC2=C(C#N)C(c3ccco3)CC(=O)N2)c(C)c1 (stereo not given)	>57	?
33	O=C(c1ccc(N2CCOCC2)cc1)c1cccs1	>57	-18.0%
34	COc1ccccc1/C=c1\sc2nc(-c3ccco3)nn2c1=O	>57	-14.0%
35	CCCc1c(O)nc(SCCN(CC)CC)n(C(=O)c2ccccc2)c1=O	>57	?
36	COc1cc2c(cc1OC)C(C)N(C(=O)C1COc3ccccc3O1)CC2 (stereo not given)	>57	-16.2%
37	CC(C)(C)n1nc2c(c1NC(=O)c1cccc(C(F)(F)F)c1)CS(=O)C2 (stereo not given)	>57	2.8%
38	COc1cc(C(=O)OCC(=O)NCc2ccco2)cc(OC)c1OC	>57	-0.7%
39	Oc1ccc(Nc2nc(-c3ccc(O)cc3)cs2)cc1	>57	-12.5%
40	COc1ccccc1C(=O)Nc1ccc(S(=O)(=O)N2CCCC2)cc1	>57	-15.2%
41	COc1ccc(C(=O)Nc2cc(Cl)cc(Cl)c2)c(OC)n1	>57	10.4%
42	Cc1occc1-c1nnc(SCC(=O)Nc2nccs2)n1Cc1ccco1	>57	-9.1%
43	COC(=O)CSc1cc(SCC(=O)OC)c(C#N)c(SCC(=O)OC)c1	>57	?
44	O=C(NCc1ccncc1)c1ccc(Br)o1	.	9.5%
45	CN(C)S(=O)(=O)Nc1ccc(Oc2ccccc2)cc1	>57	.
46	CC1Cc2ccccc2N1S(=O)(=O)c1ccc2c(c1)n(C)c(=O)c(=O)n2C (stereo not given)	>57	5.2%
47	C=CCn1c(SCc2c(F)cccc2Cl)nnc1-c1ccco1	>57	4.1%
48	CCOC(=O)N1CCC(NC(=O)C2CCN(S(=O)(=O)c3cccc4cccnc34)CC2)CC1	>57	-10.7%
49	CC(C)CN1CCC2(CC1)CCN(C(=O)c1cnccn1)CC2	>57	14.6%
50	CC1CCN(C(=O)CSc2nnc(-c3ccc(S(=O)(=O)N4CCOCC4)cc3)n2C)CC1	>57	-0.4%
51	COc1ccc(O[C@H]2C=C[C@@H](c3ccccc3)O[C@@H]2CO/N=C(\C)CCN2CCCCc3nc(C)c(C)cc32)cc1	.	3.5%[8 µM]
52	O=C(c1cc(C(F)(F)F)cc(C(F)(F)F)c1)N1CCC2(CCCN(Cc3ccccc3)C2)CC1	>57	?
53	COc1ccccc1OCc1nc(C#N)c(NCc2ccco2)o1	>57	6.5%
54	CCCCS(=O)CC(CS(=O)CCCC)OC(=O)c1ccc(C)cc1 (stereo not given)	.	20.2%
55	CCCOc1ccc(C2C(=O)N(C3CCCCC3)CC(=O)N2CCC)cc1OC (stereo not given)	>57	-6.7%
56	CCCNC(=O)CCNC(=O)c1ccc(C(C)(C)C)cc1	>57	-5.0%
57	c1ccc(CSc2ncn(-c3ccccc3)n2)cc1	.	?
58	O=C(Cc1cccs1)N(Cc1ccco1)C1(C(=O)NC2CCCC2)CCCCC1	>57	-4.8%
59	Cc1cc(C)n(-c2ccc(C(=O)OCC(=O)N(CC(C)C)C3CCS(=O)(=O)C3)cc2)n1 (stereo not given)	>57	2.4%
60	CCOc1cc(N2CCOCC2)c(OCC)cc1NC(=O)Cn1[nH]c(=O)c2ccccc2c1=O	>57	-13.4%

# Full records, looked up by structure. Order of values: SmPrx2 inh | Anthrax LT inh
# COc1ccccc1OCc1nc(C#N)c(NCc2ccco2)o1 as listed: >57 | 6.5%
# c1ccc(CSc2ncn(-c3ccccc3)n2)cc1 as listed: . | ?
# O=C(c1cc(C(F)(F)F)cc(C(F)(F)F)c1)N1CCC2(CCCN(Cc3ccccc3)C2)CC1 as listed: >57 | ?

# The results go on:
nr	SMILES	SmPrx2 inh	Anthrax LT inh
61	O=S(=O)(NCC1CCCO1)c1ccc2oc3ccc(S(=O)(=O)NCC4CCCO4)cc3c2c1 (stereo not given)	>57	-8.7%
62	COc1ccc(C(C)(C)C)cc1NC(=O)C1C2C=CC(C2)C1C(=O)O (stereo not given)	>57	?
63	COCCCNC(=O)C1CCC(=O)N1Cc1ccccc1Cl (stereo not given)	>57	-0.2%
64	CN(C(=O)c1ccc(Cl)cc1)C1=CCCCC1CCC#N (stereo not given)	>57	-5.4%
65	CN1CCN(c2ncc3ncc(=O)n(Cc4ccc(F)cc4)c3n2)CC1	>57	12.0%
66	CCOC(=O)Cc1c(C)c2c(C)[nH]nc2oc1=O	>57	18.2%
67	CCC(C)(C)NC(=O)CN(C(=O)c1snc(C(N)=O)c1N)c1ccc2c(c1)OCCO2	>57	?
68	CC1(C)Cc2c(C#N)c(N)n(-c3ccccc3)c(=O)c2CO1	>57	-9.9%
69	O=C(NCc1cccnc1)c1ccccn1	>57	.
70	N#CCSc1nnc(COc2cccc3ccccc23)n1-c1ccccc1	>57	?
71	ClC(Cl)(Cl)C(Cl)(Cl)Cl	.	?
72	Cn1c(-c2ccc(N)cc2)nc2ccccc21	>57	7.1%
73	CCNc1ncc2nc(-c3cccs3)c(=O)n(CCc3ccccc3)c2n1	>57	?
74	O=C(C1CCCN(S(=O)(=O)c2ccc(Cl)cc2)C1)N(Cc1cccs1)C1CC1 (stereo not given)	>57	-2.2%
75	CO[C@@H]1COC(=O)[C@H]2CCCN2C(=O)[C@@H](C)COC(=O)C/C=C\[C@H]1C	.	-10.1%[8 µM]
76	C/C(CCN1CCCc2nc(C)c(C)cc21)=N\OC[C@@H](C)[C@H](OCc1ccccc1)C(C)C	.	6.1%[8 µM]
77	CC(C)CN1CCC2(CC1)CCN(C(=O)c1cc(C(F)(F)F)cc(C(F)(F)F)c1)CC2	>57	-12.2%
78	CCn1c(CSc2nnc(-c3ccc4c(c3)OCO4)o2)nc2cc(S(=O)(=O)N(C)C)ccc21	>57	4.1%
79	CCCNc1nc2c(c(=O)[nH]c(=O)n2C)n1Cc1cccc(Br)c1	>57	8.0%
80	COC(=O)c1ccccc1NC(=O)CN(CCc1ccccc1)S(C)(=O)=O	>57	-12.0%
81	c1ccc(C2=NN[C@@H]3c4ccccc4-c4ccccc4N3C2)cc1	>57	-2.5%[8 µM]
82	c1ccc(-c2nnc(N3CCN(c4ccccn4)CC3)c3ccccc23)cc1	>57	10µM*
83	COC(=O)c1ccccc1NC(=O)c1noc2c1CCC2	>57	-2.0%
84	Cc1cc(=Nc2ccc3c(c2)c(N)cc(C)[n+]3C)nc(N)n1C	>57	-1.0%[8 µM]
85	O=C(CCNS(=O)(=O)c1cccc2nonc12)NCCc1ccc(Cl)cc1	>57	-18.6%
86	CN(C)S(=O)(=O)c1ccc(C(=O)Nc2ccccc2C(=O)O)cc1	>57	-5.1%
87	Cc1nc(Nc2ccc(S(N)(=O)=O)cc2)oc1C	>57	?
88	Cc1ccc2cc3cc(C(=O)NCCC(C)C)oc3nc2c1	>57	-5.8%
89	Cn1c(SCc2nnc(-c3ccc(F)cc3)o2)nnc1C1COc2ccccc2O1 (stereo not given)	>57	-1.6%
90	COc1cc(-c2nnc(SCc3cc(=O)oc4cc(C)ccc34)o2)cc(OC)c1OC	>57	-5.9%
91	COc1ccc(-c2nc(N3CCOCC3)nc3n[nH]c(N)c23)cc1	>57	-18.8%
92	CCCCc1c(O)nc(SCC(=O)NCCc2ccc(OC)c(OC)c2)[nH]c1=O	>57	8.4%
93	CCOc1ccccc1C1N(c2ccc(OC)cc2)C(=O)C2CCCN21 (stereo not given)	>57	4.3%
94	COc1cc(=O)[nH]c(SCc2c(F)c(F)c(F)c(F)c2F)n1	>57	-7.5%
95	O=C(Nc1ccc(Cl)c(Cl)c1)N1CCSC1c1ccco1 (stereo not given)	>57	?
96	O=C(NCc1ccc(F)cc1)C1CCCN1C(=O)NCc1ccccc1 (stereo not given)	>57	?
97	CC(C)c1nnc(NC(=O)c2c(O)c3cccc4c3n(c2=O)CC4)s1	>57	8.2%
98	Cc1ccccc1OCCCN1C(=O)C(=O)c2cccc(C)c21	>57	?
99	CCOC(=O)N1CCN(c2cc(NCCC(=O)O)c3c4c(onc24)-c2ccccc2C3=O)CC1	>57	-2.2%
100	CCOC(=O)c1c(NC(=O)c2cccs2)sc2c1CCC2	>57	-9.9%
101	CCOC(=O)C1CCN(C(=O)Nc2ccc3snnc3c2)CC1	>57	-1.9%
102	O=C(CN(C(=O)CCNC(=O)c1ccco1)c1ccccc1)NC1CCCC1	>57	?
103	COc1ccc(Cl)cc1NC(=O)CSc1nnc(Cn2c(=O)sc3ccccc32)n1C	>57	0.2%
104	C(=C\c1ccccc1)/C=N/n1cnnc1	.	-7.1%
105	CCNC(=O)CC(=O)Nc1ccccc1C(=O)O	>57	?
106	COc1ccc(OC)c(CCNC(=O)CS(=O)(=O)Cc2nc(-c3ccc(C)cc3)oc2C)c1	>57	-6.2%
107	CCCCCn1c(Br)nc2c1c(=O)n(CC(N)=O)c(=O)n2C	>57	-2.8%
108	Cc1cccc(-c2nsc(SCC(=O)Nc3cc(C)on3)n2)c1	>57	4.2%

# Part of the list above, screen by screen.
45	CN(C)S(=O)(=O)Nc1ccc(Oc2ccccc2)cc1
46	CC1Cc2ccccc2N1S(=O)(=O)c1ccc2c(c1)n(C)c(=O)c(=O)n2C (stereo not given)
Assay by compound | 45 | 46
SmPrx2 inh | >57 | >57
Anthrax LT inh | . | 5.2%

# (further entries)
nr	SMILES	SmPrx2 inh	Anthrax LT inh
109	CCOc1ccccc1NC(=O)C1CCCN(S(=O)(=O)c2ccc(OC)c(C)c2)C1 (stereo not given)	>57	?
110	NS(=O)(=O)c1ccc(Nc2nc(-c3ccc(O)cc3)cs2)cc1	>57	-12.3%
111	CCOc1ccc(C)cc1S(=O)(=O)N1CCCCC1	>57	?
112	CCOC(=O)C1C(=O)NC(SCC(=O)Nc2nccs2)=C(C#N)C1c1ccccc1OCC (stereo not given)	>57	-5.1%
113	CCCc1nnc(NC(=O)Cn2c(=O)sc3ccccc32)s1	>57	12.9%
114	COCCN(CCOC)S(=O)(=O)c1ccc(C(=O)Nc2nnc(C)o2)cc1	>57	5.5%
115	O=C(Nc1cccc2nsnc12)C1CC(=O)N(c2ccccc2)C1 (stereo not given)	>57	.
116	CCCS(=O)(=O)N1CCN(c2ccccc2F)CC1	>57	-4.8%
117	CCOCCn1c(CN2CCOCC2)nc2c1c(=O)[nH]c(=O)n2C	>57	11.8%
